MLL AF4-AF9 inh: inhibitors of AF4 peptide binding to AF9, primary screen, biochemical, AlphaScreen, biotin-AF4 peptide, FLAG-AF9, single point; Protein AF-9 (Homo sapiens), P42568; inhibition, % at 10 µM; actives 0.47% (n = 350,000); AID 651704, 2012;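 active = every replicate reaching a set inhibition limit, whatever the replicate mean, cut at about 25% in these data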;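 also: 0% = plate neutral control median and 100% = total signal loss; the record names both 10 and 1 µM as test concentration; the first replicate is given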
Target sequence (P42568 whole entry, looked up): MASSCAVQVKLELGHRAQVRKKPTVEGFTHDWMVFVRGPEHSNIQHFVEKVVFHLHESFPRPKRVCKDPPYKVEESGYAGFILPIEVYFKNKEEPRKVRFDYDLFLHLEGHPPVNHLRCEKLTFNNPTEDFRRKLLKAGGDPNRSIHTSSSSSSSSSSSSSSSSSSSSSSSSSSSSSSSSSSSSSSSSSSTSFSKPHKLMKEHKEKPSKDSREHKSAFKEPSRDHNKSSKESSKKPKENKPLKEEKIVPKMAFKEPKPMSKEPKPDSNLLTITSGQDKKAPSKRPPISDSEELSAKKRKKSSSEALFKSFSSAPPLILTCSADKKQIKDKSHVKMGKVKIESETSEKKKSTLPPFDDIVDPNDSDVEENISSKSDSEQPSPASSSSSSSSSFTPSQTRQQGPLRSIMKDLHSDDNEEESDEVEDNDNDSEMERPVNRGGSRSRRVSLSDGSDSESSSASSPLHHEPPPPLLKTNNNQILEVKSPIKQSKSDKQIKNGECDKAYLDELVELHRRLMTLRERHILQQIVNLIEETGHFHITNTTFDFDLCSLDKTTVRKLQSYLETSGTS
Ecoli rRNA inh: reduced GFP signal of wild-type E. coli, primary screen, bacterial rRNA inhibitor project, GFP/RFP fluorescence, OD600, single point | E. coli WT GFP vs humanized-ribosome RFP mutants, 24 h; active compounds read low; DMSO median 0, no signal -100 | GFP signal change (wild-type ribosome), % (no concentration beside the values) | actives 1.6% (n = 350,000) | AID 720706, 2013;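 active = significant combined selectivity score with lowered wild-type GFP, culture density cut under 30%, mutant RFP and density less affected; inactive = any of these conditions unmet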; also: one replicate is shown; some compounds called inactive have numbers as strong as hits
FGF22 binding: binders of human FGF22 protein, primary screen, FGF22 synaptogenesis inhibitor project, biophysical, thermal shift, single point; Fibroblast growth factor 22 (Homo sapiens), Q9HCT0; recombinant FGF22 thermal shift, SYPRO orange fluorescence; percent of sucrose octasulfate shift, DMSO zero; calls only at 9.99 µM; actives 1.5% (n = 340,000); AID 651658, 2012;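 active = melting point raised past a set limit in the mean and every replicate; three in four hits are not shown here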
Target sequence (Q9HCT0 whole entry, looked up): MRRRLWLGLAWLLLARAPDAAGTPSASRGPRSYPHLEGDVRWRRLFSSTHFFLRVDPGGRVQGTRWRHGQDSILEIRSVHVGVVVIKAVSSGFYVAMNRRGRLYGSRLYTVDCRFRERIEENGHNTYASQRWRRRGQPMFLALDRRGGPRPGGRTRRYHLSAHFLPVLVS
Ecoli rRNA inh OD600: recorded beside Ecoli rRNA inh, whose call it bears; OD600 change, %; measured here: OD600 growth;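 optical density of the mix in the first replicate; 0 = DMSO median and -100 = no signal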
Ecoli rRNA inh RFP: second read-out of Ecoli rRNA inh, no call of its own (marks repeat the call); RFP signal change, %; measured here: RFP humanized mutant strains;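 first replicate; 0 = DMSO median and -100 = no signal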
Active calls of the source: *; i = inactive; + = active, no number; & = joins results of further samples.

SMILES | MLL AF4-AF9 inh | Ecoli rRNA inh | Ecoli rRNA inh OD600 | Ecoli rRNA inh RFP | FGF22 binding
C[C@H](CO)N1C[C@H](C)[C@H](CN(C)Cc2ccc(C(F)(F)F)cc2)OCCCC[C@H](C)Oc2ccc(NS(=O)(=O)c3cn(C)cn3)cc2C1=O | 6.9 | 0 | -7 | 4.5 | i
Cc1cccc(C)c1NC(=O)C1(C)CCC(=O)N1C1CC1 (stereo not given) | -1.0 | 1 | 3 | 1.8 | i
COc1cc2c(cc1OC)C(O)=CC(=O)C2=O | -1.7 | -2 | -2 | -1.8 | i
CCCC(=O)Nc1cc(OC)c(NC(=S)Nc2cccc(C)c2)cc1OC | 7.6 | -5 | 2 | 14 | i
O=C(NCC[C@H]1CC[C@H](NS(=O)(=O)c2ccc(Cl)cc2)[C@@H](CO)O1)c1ccccc1F | -0.9 | -1 | -11 | -4.2 | i
C[C@@H]1CN([C@@H](C)CO)S(=O)(=O)c2ccc(C#CC3CC3)cc2O[C@H]1CN(C)C(=O)C1CC1 | 1.9 | -24 | -46 | -13 | i
O=C(/C=C/[C@H]1O[C@@H](n2cnc3c(NC(=O)c4ccccc4)ncnc32)[C@H](O)[C@@H]1O)NCc1ccc2c(c1)OCO2 | -0.2 | 30 | 15 | 1.7 | i
COc1ccc(NC(=O)N(C)C[C@H]2OCCCC[C@H](C)Oc3ccc(NC(=O)Nc4ccc(C(F)(F)F)cc4)cc3C(=O)N([C@@H](C)CO)C[C@H]2C)cc1 | -1.4 | -8 | -7 | -2.9 | i
C[C@H](O)C#Cc1cnc2c(c1)C(=O)N([C@@H](C)CO)C[C@H](C)[C@@H](CN(C)Cc1cncnc1)O2 | -4.1 | 6 | 13 | -3.3 | i
CCCNC(=O)C[C@H]1CC[C@H]2[C@H](COc3ccc(NC(=O)c4ccc(C(F)(F)F)cc4)cc3C(=O)N2C)O1 | 0.4 | -2 | -7 | 0.2 | i
O=C(C[C@@H]1C=C[C@H](NC(=O)c2ccc(F)cc2)[C@@H](CO)O1)NCCc1ccccc1 | 0.2 | -1 | 3 | 0.1 | i
C[C@H]1CN([C@@H](C)CO)S(=O)(=O)c2ccc(-c3cccc(C#N)c3)cc2O[C@H]1CN(C)C(=O)Nc1ccccc1F | 0.8 | -13 | -16 | 1.4 | i
Cc1cc(C)c(O)c(C(=O)CC2CC(=O)NC(=O)C2)c1 | -0.5 | 4 | 3 | -4.8 | i
COc1ccccc1C(=O)N/C(=C/c1ccc(Br)cc1)C(=O)N1CCOCC1 | 2.1 | -1 | -2 | 0.7 | i
COC(=O)c1ccccc1S(=O)(=O)N1CCC(C(=O)OCC(=O)NC2CCCCC2C)CC1 (stereo not given) | -6.5 | 4 | 0 | 5.1 | i
C[C@@H]1CN([C@H](C)CO)C(=O)c2cc(NC(=O)C3CC3)ccc2O[C@@H]1CN(C)C(=O)Nc1ccc(F)cc1 | 0.1 | 4 | 6 | 1.0 | i
COc1ccc(NC(=O)c2ccc(=O)[nH]c2)cc1S(=O)(=O)N1CCOCC1 | -7.4 | 0 | 8 | -0.2 | i
COCC(=O)N1CC2(C1)[C@H](c1ccc(-c3cccc(C)c3)cc1)[C@H](CO)N2C(=O)C1CC1 | -7.6 | -2 | -7 | 2.8 | +
CC(=O)Nc1ccc2c(c1)C(=O)N(C)[C@H]1CC[C@H](CC(=O)Nc3c(F)cccc3F)O[C@@H]1CO2 | -7.3 | -3 | -4 | -0.4 | i
CO[C@@H]1CN(C)C(=O)c2ccc(NS(C)(=O)=O)cc2OC[C@H](C)N(C)C[C@@H]1C | -0.4 | 0 | -6 | -1.4 | i
C[C@H]1CN([C@@H](C)CO)C(=O)c2cc(C3=CCCCC3)cnc2O[C@H]1CN(C)C(=O)c1cccnc1 | -1.8 | 7 | 8 | -2.1 | i
COCCNC(=O)C[C@@H]1CC[C@@H]2[C@H](COc3ccc(NC(=O)COC)cc3C(=O)N2C)O1 | 0.1 | 0 | 5 | -1.5 | i
Cc1noc(C)c1S(=O)(=O)Nc1ccc2c(c1)C(=O)N([C@H](C)CO)C[C@H](C)[C@H](CN(C)C(=O)NC1CCCCC1)OCCCC[C@@H](C)O2 | -5.7 | 2 | 8 | 0.2 | i
Cn1c(=O)c2c(-c3ccccc3)n(-c3ccccc3S)cc2n(C)c1=O | -1.8 | -1 | -1 | 1.1 | i
N#C[C@H]1[C@@H](c2ccc(C3=CCCCC3)cc2)[C@H](CO)N1C(=O)NC1CCCCC1 | 0.7 | -14 | -12 | -1.3 | i

The list goes on:
SMILES | MLL AF4-AF9 inh | Ecoli rRNA inh | Ecoli rRNA inh OD600 | Ecoli rRNA inh RFP | FGF22 binding
CC=Cc1ccc2n(c1=O)C[C@H]1[C@H](CO)[C@@H](C(=O)Nc3ccc(-c4ccccc4)cc3)N(CC)[C@@H]21 (mixture of isomers) | 5.4 | -15 | -51 | 29 | i
Cc1noc(C)c1NC(=O)Nc1cccc2c1O[C@H](CN(C)Cc1ccc(Cl)c(Cl)c1)[C@H](C)CN([C@@H](C)CO)C2=O | 0.0 | 1 | -8 | -1.6 | i
N#C[C@@H]1[C@H](c2ccccc2C2=CCCC2)[C@@H](CO)N1C(=O)C1CCCC1 | -0.3 | -4 | -1 | -0.7 | i
O=C(NCc1cc(F)cc(F)c1)[C@H]1[C@H](CO)[C@H]2Cn3c(cccc3=O)[C@@H]1N2C(=O)c1ccccn1 | -3.5 | 3 | 3 | -1.9 | i
C[C@@H]1CN([C@H](C)CO)C(=O)c2cc(NC(=O)CCCN(C)C)ccc2O[C@@H](C)CCCCO[C@@H]1CN(C)S(C)(=O)=O | -2.8 | 1 | 13 | -2.0 | i
C[C@H](CO)N1C[C@H](C)[C@@H](CN(C)Cc2ccc(C(=O)Nc3ccccc3N)cc2)Oc2ccc(NC(=O)c3ccncc3)cc2C1=O | -2.7 | -4 | 2 | 1.1 | i
CC(C)CN1CCC1(C)C(=O)Nc1cc(-c2ccccc2)nn1C (stereo not given) | -1.2 | 9 | 14 | -2.0 | i
NC(N)=N/N=C(\N=Nc1ccccc1)c1ccc(Cl)cc1 | 35* | -30 | -43 | -9.0 | i
O=S(=O)(NNc1ncc(C(F)(F)F)cc1Cl)c1ccccc1 | -1.2 | 11 | 20 | 1.9 | i
C[C@H](CO)N1C[C@H](C)[C@@H](CN(C)C(=O)Nc2ccc(C(C)(C)C)cc2)OCc2cnnn2CCCC1=O | 0.5&2.8 | -4&-3 | -7&2 | -4.0&-4.5 | i
COc1ccc(Cl)cc1N(CC(=O)NCc1ccccn1)S(=O)(=O)c1ccc(C)cc1 | -3.0 | -16 | -39 | -2.3 | i
C[C@H](CO)N1C[C@H](C)[C@H](CN(C)Cc2ccc(Cl)c(Cl)c2)Oc2c(NC(=O)C3CCOCC3)cccc2C1=O | 1.2 | 5 | 1 | -1.0 | i
CC1(Oc2cccc(F)c2)CCN(Cc2ccc3ccccc3c2)C1 (stereo not given) | -8.6 | -25 | -38 | -8.8 | i
CC(C)(C)OC(=O)N[C@H]1C=C[C@H](OC(=O)CC(=O)OCC(F)(F)F)C1 | -0.9 | 7 | 13 | -1.1 | i
C[C@H]1CN([C@@H](C)CO)C(=O)c2cc(NC(=O)Cc3cn(C)c4ccccc34)ccc2O[C@H]1CN(C)C(=O)Nc1ccc(F)cc1 | 1.1 | -1 | -7 | 2.1 | i
O=C(C[C@H]1CC[C@H]2[C@@H](COC[C@@H](O)CN2C(=O)Nc2ccccc2)O1)NCc1ccccc1F | -1.6 | 6 | 3 | 0.1 | i
C[C@H]1CN([C@@H](C)CO)C(=O)c2cc(NC(=O)CCCN(C)C)ccc2O[C@@H]1CN(C)CC1CC1 | -0.4 | 2 | 12 | -1.7 | i
Cc1noc(C)c1NC(=O)N(C)C[C@@H]1Oc2ccc(NC(=O)Nc3ccccc3)cc2CC(=O)N([C@@H](C)CO)C[C@H]1C | 0.4 | 3 | 6 | -1.3 | i
O=C(COC(=O)c1cccc(S(=O)(=O)N2CCCC2)c1)Nc1ccccc1Cl | 6.4 | 0 | -8 | -3.6 | i
C[C@H]1CN([C@@H](C)CO)C(=O)c2cc(NC(=O)Nc3ccc4c(c3)OCO4)ccc2O[C@H]1CN(C)S(=O)(=O)c1ccc(Cl)cc1 | 6.3 | -2 | -3 | -0.2 | i
O=C1NC(=O)C(CSc2ccccc2)(c2ccccc2)N1 (stereo not given) | 2.2 | 1 | -5 | 2.1 | i
COc1ccc(-n2c(SCC(=O)NCC3CCCO3)nc3ccccc3c2=O)cc1Cl (stereo not given) | 2.3 | 5 | 1 | -0.1 | i
C[C@H](CO)N1C[C@H](C)[C@H](CN(C)C(=O)Nc2ccc(F)cc2)OCCCC[C@H](C)Oc2ccc(NC(=O)Nc3ccc(C(F)(F)F)cc3)cc2C1=O | -10 | -6 | 1 | -5.8 | +
CC(C)C#Cc1ccc([C@@H]2[C@H](CO)N3CCCCN(C(=O)c4ccc5c(c4)OCO5)C[C@@H]23)cc1 | 7.3 | -32 | -66 | -4.9 | i
CC1(C)NC(=O)N(CC(=O)OCC(=O)Nc2c(Br)cc([N+](=O)[O-])cc2Br)C1=O | -1.8 | 3 | 16 | -6.1 | i

Record cards (already shown). Screens in order: MLL AF4-AF9 inh	Ecoli rRNA inh	Ecoli rRNA inh OD600	Ecoli rRNA inh RFP	FGF22 binding
C[C@H](O)C#Cc1cnc2c(c1)C(=O)N([C@@H](C)CO)C[C@H](C)[C@@H](CN(C)Cc1cncnc1)O2 reads -4.1	6	13	-3.3	i
O=C(/C=C/[C@H]1O[C@@H](n2cnc3c(NC(=O)c4ccccc4)ncnc32)[C@H](O)[C@@H]1O)NCc1ccc2c(c1)OCO2 reads -0.2	30	15	1.7	i
COc1ccccc1C(=O)N/C(=C/c1ccc(Br)cc1)C(=O)N1CCOCC1 reads 2.1	-1	-2	0.7	i
COCC(=O)N1CC2(C1)[C@H](c1ccc(-c3cccc(C)c3)cc1)[C@H](CO)N2C(=O)C1CC1 reads -7.6	-2	-7	2.8	+
C[C@H](CO)N1C[C@H](C)[C@H](CN(C)Cc2ccc(Cl)c(Cl)c2)Oc2c(NC(=O)C3CCOCC3)cccc2C1=O reads 1.2	5	1	-1.0	i

(cont.)
SMILES | MLL AF4-AF9 inh | Ecoli rRNA inh | Ecoli rRNA inh OD600 | Ecoli rRNA inh RFP | FGF22 binding
CCNC(=O)C[C@H]1CC[C@H]2[C@@H](COc3ccc(NC(=O)C4CCCCC4)cc3C(=O)N2C)O1 | -1.4 | 2 | 0 | -0.4 | i
O=C(C[C@@H]1CC[C@@H]2[C@H](COC[C@H](O)CN2Cc2ccccc2F)O1)N[C@H]1CCN(Cc2ccccc2)C1 | 2.9 | 0 | -8 | 1.2 | i
COCCCn1c(=O)/c(=C/c2ccccc2OC(C)C)s/c1=C(\C#N)C(=O)Nc1ccc(C(=O)O)cc1 | 4.1 | 9 | 22 | 0.6 | i
CC(=O)N(C)C[C@H]1[C@H](c2ccc(-c3ccccc3)cc2)[C@@H](CO)N1C(=O)C1CC1 | -0.5 | -1 | -4 | -0.9 | i
CC(C)NC(=O)N1C[C@H]2[C@@H](c3ccccc31)[C@H](CO)N2Cc1ccccn1 | -2.9 | 4 | 3 | 2.2 | i
COc1ccc(NC(=O)Nc2cccc3c2O[C@H](CN(C)C(=O)NC(C)C)[C@@H](C)CN([C@@H](C)CO)C3=O)cc1 | -3.5 | 1 | 4 | -1.7 | i
CC(=O)N(C)C[C@@H]1Oc2ncc(-c3ccc(C(=O)N(C)C)cc3)cc2C(=O)N([C@@H](C)CO)C[C@@H]1C | -0.8 | 3 | -3 | -3.9 | i
O=C(Nc1cc(F)ccc1F)N1CCCCN2[C@H](CO)[C@@H](c3ccc(-c4ccncc4)cc3)[C@@H]2C1 | -2.8 | -8 | -48 | 13 | i
CCN(CC(=O)Nc1c(F)cccc1F)C(=O)c1nc2nc(C)cc(C)n2n1 | -0.9 | 13 | 10 | -1.2 | i
CCC(=O)N(C)C[C@H]1Oc2cc(C#CCOC)ccc2S(=O)(=O)N([C@H](C)CO)C[C@H]1C | 0.4 | 4 | 3 | -3.7 | i
CC(=O)Nc1ccc(-c2ccnc3c2CC(C(=O)NCCC(F)(F)F)O3)cc1 (stereo not given) | -4.5 | 4 | -12 | -1.5 | i
C[C@H](CO)N1C[C@H](C)[C@H](CN(C)C(=O)Nc2ccc(F)cc2)OCc2cnnn2CCCC1=O | -2.0&-1.3 | 9&2 | 14&-2 | -1.8&-0.8 | i
Cc1cccc(C)c1NC(=O)C(c1cc2ccccc2o1)N1CCC(c2ccccc2)CC1 (stereo not given) | 1.4 | 7 | 12 | -0.9 | i
CCC(=O)N(C)C[C@@H]1Oc2cc(C#CC3CCCC3)ccc2S(=O)(=O)N([C@H](C)CO)C[C@H]1C | 5.2 | 0 | -16 | 6.1 | i
COc1ccc(NC(=O)Nc2ccc3c(c2)CC(=O)N([C@@H](C)CO)C[C@@H](C)[C@H](CN(C)C(=O)NC2CCCCC2)O3)cc1 | -0.5 | -3 | -1 | 0.5 | i

Compound activity deposited in PubChem by Broad Institute.

These rows are one share of the data, so the mix of outcomes need not match the whole.
